# GLA inh pH 4.5 – inhibitors of human alpha-galactosidase A at pH 4.5 | P06280 | purified enzyme, 4-MU-alpha-Gal fluorescence, pH 4.5 | activity change, negative = inhibition, % at 105 µM | 230,000 tested, under 10 active | AID 1467; inconclusive = small, poorly fitted or top-dose-only inhibition, or a rising curve; inactive = flat fitted curve, though single readings scatter; no compound was filed as active;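 also: 0% = full activity with enzyme and -100% = basal without enzyme; dose as in the result columns while the protocol names 77 µM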
# Target sequence (P06280 whole entry, looked up): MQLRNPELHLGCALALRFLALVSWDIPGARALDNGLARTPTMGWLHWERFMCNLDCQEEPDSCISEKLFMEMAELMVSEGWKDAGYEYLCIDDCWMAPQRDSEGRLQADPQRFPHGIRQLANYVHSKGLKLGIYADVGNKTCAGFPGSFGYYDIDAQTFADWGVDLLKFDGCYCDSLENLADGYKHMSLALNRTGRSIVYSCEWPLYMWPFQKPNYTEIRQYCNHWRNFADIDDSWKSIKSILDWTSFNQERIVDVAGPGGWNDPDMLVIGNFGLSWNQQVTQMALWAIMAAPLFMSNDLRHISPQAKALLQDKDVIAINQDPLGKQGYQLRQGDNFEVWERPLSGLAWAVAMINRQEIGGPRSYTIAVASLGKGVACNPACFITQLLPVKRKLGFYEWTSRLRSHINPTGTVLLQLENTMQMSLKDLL
# Rango-impB inh – inhibitors of Rango-importin beta complex formation; Q14974; Rango CFP/YFP FRET sensor + importin beta, 45 min; Potency, µM (highest dose often 92.2 µM), inactives show top-dose inhibition of complex formation; 340,000 tested, 0.031% active; AID 540263; active = rising FRET ratio curve, often small or poorly fitted; inconclusive = mostly compound fluorescence or quenching in the first reads; inactive = flat curves in all reads;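 also: potency is read from the fitted curve at half-maximal effect; 0% = DMSO wells and 100% = buffer wells lacking importin beta; nearly all actives have a fitted effect of over 15% in size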
#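 Inhibition scored from the CFP 486 nm/YFP 530 nm FRET ratio 45 min after adding 0.125 microM importin beta to 50 nM Rango biosensor preincubated 5 min with compound (room temperature, PBS with DTT, Tween-20, BSA). No-importin wells as positive control.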
# miR-21 reporter – miR-21 reporter, rising signal; HeLa miR-21 FLuc reporter, luciferase, 48 h; Potency, µM (titrated, usually from 38.3 µM), for inactives: at the highest dose reporter change, positive = more light; 340,000 tested, under 10 active; AID 2288; active = well fitted rising curve with a large enough effect; inconclusive = small, poorly fitted or top-dose-only effect; inactive = no such curve, though single readings can be large or run the other way;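 also: % of control where 0% means no effect; miR-21 action dims this reporter so a rising signal means less miR-21 action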
#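 HeLa cells endogenously expressing miR-21, stably carrying CMV-driven firefly luciferase with a downstream miR-21 binding site, 2000 cells/well. Titrations up to approximately 40 uM, 48 hours; luciferase luminescence read.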
# Rango dissoc inh – prevents RanGTP from dissociating the Rango-importin beta complex; O95149+P62826; Biochemical FRET Rango-importin beta, RanGTP-induced dissociation; Potency, µM (top dose mostly 46.1 µM), for inactives: at the top dose activity change, negative = inhibition; 340,000 tested, 0.071% active; AID 540253; active means falling FRET ratio curve, often poorly fitted, with flat reads before Ran was added; inconclusive means other falling curves, or compound fluorescence or quenching; inactive means flat or rising ratio curve;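 also: potency is read from the fitted curve at half-maximal effect; % of control where 0% means no effect; nearly all actives have a fitted effect of over 45% in size; -100% = wells without RanGTP and RCC1; the record marks most hits as doubtful in a second field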
#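 Rango (0.1 uM)–importin beta (0.25 uM) complex; RanGTP-RCC1 trigger; 45 min RT; CFP/YFP FRET read.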
# * hit, by the source's call; ? = inconclusive; . = no result given; & = joins results of further samples. Some of the compounds tested; count on the stated rates, not on these rows.
# Every second line gives: Rango-impB inh | Rango dissoc inh | GLA inh pH 4.5 | miR-21 reporter
Cc1ccc(S(=O)(=O)N2CCN(C(=O)COC(=O)c3ccc([N+](=O)[O-])o3)CC2)c(C)c1
 : 0.4% | -20% | . | .
CC(C)(C)C(=O)Nc1ccc(NC(=O)c2ccco2)nc1
 : -0.8% | 2% | . | ?
COc1ccc2nc(NC(=O)c3ccc(-c4cccc([N+](=O)[O-])c4)o3)sc2c1
 : . | . | 2 | -8%
O=c1c2ccccc2nnn1-c1ccccc1
 : 1.1% | -2% | . | .
Clc1ccc(Nc2ccc3ccccc3n2)cc1
 : -1.8% | -2% | . | .
CSc1nc(N2CCOCC2)c2c(c1C#N)CC(C(C)C)OC2 (stereo not drawn)
 : -4.0% | 1% | . | -2%
Cc1cc(C(=O)NNC(=O)c2ccc(F)cc2)c(C)s1
 : 1.5% | 15% | . | .
Cc1cccc(NC(=S)N(Cc2ccc(Cl)cc2)Cc2ccc(C(=O)O)cc2)c1
 : 1.1% | 3% | -2 | 2%
Cc1ccccc1Nc1nc(N)nc(COC(=O)c2ccc(O)cc2)n1
 : -0.2% | -14% | -16 | -53%
c1ccc(-c2ccccc2OCCN2CCCC2)cc1
 : 3.7% | -1% | . | -1%
O=C(NNC(=O)c1ccccc1F)c1ccc(-c2ccc(Cl)cc2)o1
 : -0.4% | 4% | . | .
CCOc1ccccc1NC(=O)C(NCC1(N2CCCCC2)CCCCC1)c1ccccc1 (stereo not drawn)
 : -1.2% | 2% | -13 | 28%
Cc1ccccc1C(=O)NCCNC(=O)c1ccco1
 : 8.9% | 8% | . | 4%
Cc1ccc(C(C#N)c2ccc(Cl)nn2)cc1 (stereo not drawn)
 : 4.7% | -4% | 0 | 2%
CC(=O)c1ccc(OCCOc2ccc([N+](=O)[O-])cc2)cc1
 : 3.5% | -9% | . | -13%
Cc1ccc(N2CC(C(=O)OCC(=O)C(C)(C)C)CC2=O)cc1C (stereo not drawn)
 : -4.4% | -6% | 5 | -2%
CC(C)(C)n1ncc2c(=O)n(Cc3c(Cl)cccc3Br)cnc21
 : 4.4% | 2% | . | .
NC(=O)Cn1c2[n+](c3ccccc31)CC(O)CS2 (stereo not drawn)
 : -1.9% | -4% | -8 | 1%
CCCCCCN1C=CC(=C/C=C(\C#N)C(=O)OCC)C=C1
 : ? | ? | -1 | -2%
O=C(NCCc1ccccc1)/C(=C/c1ccco1)c1ccccc1
 : -6.1% | -6% | 1 | 1%
Cc1ccc(S(=O)(=O)N2CCCC(C(=O)NNCC(=O)Nc3cc(F)ccc3F)C2)cc1 (stereo not drawn)
 : -3.4% | -1% | 1 | -2%
COC(=O)c1ccc(Cl)c(NC(=O)c2cccc([N+](=O)[O-])c2C)c1
 : -4.7% | -3% | 6 | -3%
O=C(Nc1ccccc1)c1ccccc1NC(=O)c1ccccc1C(=O)O
 : 0.0% | 0% | . | .
COc1cc(OC)c2c(c1)C(=O)OC2
 : -4.1% | 4% | 4 | 4%
COc1ccc(CCN(Cc2cccs2)S(=O)(=O)c2ccc(S(=O)(=O)N3CCC(C)CC3)cc2)cc1OC
 : -0.6% | 2% | 3 | -9%
CC(C)(C)C1CCc2c(sc(NC(=O)c3ccco3)c2C(N)=O)C1 (stereo not drawn)
 : -0.2% | -1% | -2 | -29%
O=C(NCCc1ccccc1)C(=O)NCC1OCCN1S(=O)(=O)c1ccc([N+](=O)[O-])cc1 (stereo not drawn)
 : -1.5% | -8% | -1 | 6%
CCCOc1ccc(C(=O)Nc2ccc(NC(=O)c3cccs3)cc2)cc1
 : -1.2% | 10% | . | -26%
COc1cccc(C(=O)N2CCC(C(=O)N3CCN(C)CC3)CC2)c1
 : 0.4% | 1% | . | -3%
O=C(Cc1coc(-c2ccc(F)cc2)n1)Nc1ccccc1
 : 0.9% | 5% | 6 | -22%
Fc1ccc(-n2c(-c3cccs3)nc3nc4ccccc4nc32)cc1
 : -0.2% | -4% | ? | -3%
CCOc1[nH]n(-c2ccccc2)c(=O)c1C=Nc1ccc(C)cc1
 : -0.5% | 1% | 7 | 1%
Cc1ccc(C(=O)NNC(=O)COC(=O)COc2ccccc2C#N)cc1
 : 0.4% | 1% | . | .
c1ccc(-c2nnc(SCc3nc4ccccc4[nH]3)n2Cc2ccco2)nc1
 : -1.3% | 1% | 6 | 1%
CCOc1ccc(CNC(=O)CCc2cn(C)c3ccccc23)cc1
 : 9.8% | 7% | . | -1%
C/C=C/C=C\C(=O)Nc1cccc(C2=NOC3(C2)C[C@@H](C(N)=O)N(C(=O)/C(C)=C/C)C3)c1 (stereo partly drawn)
 : -1.0% | -7% | 3 | -2%
CCOC(=O)c1sc(NC(=O)CSc2ccccn2)c(C#N)c1C
 : 4.3% | -14% | 8 | -4%
COc1ccc(C(=O)NCC(=O)N2CCC3(CC2)NCCc2[nH]cnc23)cc1
 : -1.1% | -5% | . | 1%
CCOC(=O)c1sc(NC(=O)CCN2C(=O)c3cccc([N+](=O)[O-])c3C2=O)c(C(=O)OCC)c1C
 : 0.0% | -1% | -3 | 0%
COc1cc(C(C)=O)ccc1OCc1cc(C(=O)N2CCSCC2)no1
 : -1.9% | -7% | . | -21%
COc1ccccc1N(CC(=O)NCCSCc1ccc(Cl)cc1)S(C)(=O)=O
 : -5.6% | 0% | . | 8%&18%
COc1ccc(NC(=O)CCC(=O)c2ccc(-c3ccccc3)cc2)cc1
 : 6.6% | 7% | -6 | -3%
COc1ccc(S(=O)(=O)NCc2ccc(C)cc2)cc1
 : -2.0% | -1% | -5 | -6%
O=C(Cc1ccc(Cl)cc1)Nc1ccc(N2CCN(C(=O)c3ccco3)CC2)c(Cl)c1
 : -1.3% | -21% | -12 | 18%
COC(=O)c1ccc(NC(=O)C(=O)c2cccn2C)cc1
 : 0.1% | -2% | 5 | -11%
O=C(COc1ccc(S(=O)(=O)NCc2ccccc2)cc1)NCC1CCCO1 (stereo not drawn)
 : -0.1% | -2% | -7 | -2%
Cc1cc(C(=O)COc2cccnc2[N+](=O)[O-])c(C)n1Cc1ccco1
 : ? | 1% | -4 | -21%
O=C(Nc1ccc(N2CCN(C(=O)c3ccccc3)CC2)cc1)c1cccnc1
 : -4.2% | -1% | . | 2%
CCOc1ccc2ccccc2c1/C=N/NC(=O)CNC(=O)c1ccccc1O
 : -3.3% | -13% | . | -7%
COC/C=C/C1=CC2=CC(=O)C(C)(OC(=O)c3cnc4ccccc4n3)C(=O)C2=CN1CCOC (stereo not drawn)
 : 3.8% | -16% | 7 | .
COC(CNC(=O)C1CCCCC1C(=O)O)OC (stereo not drawn)
 : 2.0% | -5% | -1 | -8%
Cc1oc(-c2ccccc2)cc1C(=O)Nc1cccc2ccccc12
 : -0.5% | -2% | -2 | 6%
Cc1ccccc1OCC(=O)NNC(=O)CN1C(=O)c2ccccc2C1=O
 : 6.9% | 6% | 2 | -9%
Clc1cccc(N2CCN(CCNc3nc4ccccc4n4cnnc34)CC2)c1
 : 1.8% | 23% | -1 | -7%
Cc1ccc(NCc2nnc3n2CCCCC3)cc1
 : 1.4% | -1% | 9 | -4%
CC12CN(C(=O)c3cccc([N+](=O)[O-])c3)C3(C#N)CC1CCC23C (stereo not drawn)
 : -3.6% | 12% | . | -8%
COc1cccc(NC(=O)NCCN2CCCCC2)c1
 : 5.7% | 16% | . | -3%
O=C(CSc1ncnc2sc3c(c12)CCC3)NCC1CCCO1 (stereo not drawn)
 : -2.0% | 8% | . | -12%
Cc1ccc(S(=O)(=O)N2CCN(C(=O)COC(=O)COc3ccc(Cl)cc3C)CC2)c(C)c1
 : -1.0% | -9% | . | .
CC(NC(=O)COC(=O)c1ccc(CO)cc1)C1CC2CCC1C2 (stereo not drawn)
 : ? | -4% | . | .

# The closing three entries of the part before lead into the next:
# Every second line gives: Rango-impB inh | Rango dissoc inh | GLA inh pH 4.5 | miR-21 reporter
O=C(CSc1ncnc2sc3c(c12)CCC3)NCC1CCCO1 (stereo not drawn)
 : -2.0% | 8% | . | -12%
Cc1ccc(S(=O)(=O)N2CCN(C(=O)COC(=O)COc3ccc(Cl)cc3C)CC2)c(C)c1
 : -1.0% | -9% | . | .
CC(NC(=O)COC(=O)c1ccc(CO)cc1)C1CC2CCC1C2 (stereo not drawn)
 : ? | -4% | . | .
O=C(CCCN1C(=O)c2ccccc2C1=O)Nc1cccnc1
 : 7.8% | -14% | 3 | -7%
O=C(COC(=O)c1cnccn1)c1ccc2c(c1)CCCC2
 : 2.8% | 6% | ? | -4%
CCOC(=O)C1CCN(C(=O)CNS(=O)(=O)c2cccs2)CC1
 : -3.4% | 9% | 1 | -9%
CCOC(=O)c1ccc(NC(=O)c2nc[nH]c2C(=O)N[C@H](C)c2ccccc2)cc1
 : -4.0% | 14% | -6 | -1%
CCCOc1cccc(C(=O)NC(=S)Nc2cccc(NC(=O)c3ccccc3Cl)c2)c1
 : -1.8% | -15% | -11 | -4%
CC(OC(=O)Cc1coc2cc3c(cc12)CCC3)C(=O)NCc1ccc2c(c1)OCO2 (stereo not drawn)
 : 4.9% | 4% | 6 | -1%
COc1cc(C(=O)Nc2ccc(C(=O)O)cc2)ccc1OC(C)=O
 : 2.2% | 5% | -2 | -1%
COc1cc(OC)cc(C(=O)NCC(=O)OCC(=O)NC2CCCc3ccccc32)c1 (stereo not drawn)
 : 4.9% | ? | . | .
CCC(C)NC(=O)c1ccccc1SC (stereo not drawn)
 : -1.7% | -10% | 1 | 1%
Cc1ccccc1-n1c(SCC(=O)Nc2cccc3ccccc23)nc(O)cc1=O
 : 2.2% | -20% | . | 1%
O=[N+]([O-])c1cc(S(=O)(=O)C(F)(F)F)ccc1Sc1nc2ccccc2[nH]1
 : 1.0% | 5% | -5 | ?
CCn1c(SCC(=O)Nc2cccc(OC)c2)nnc1-c1ccc(Cl)cc1
 : 1.9% | -3% | 3 | 8%
Cc1ccc(NC(=O)CN(C)C(=O)CCC(=O)c2cccs2)cc1
 : 0.3% | 9% | 4 | -11%
CC1=CC(C2CC(=O)N(c3ccc(C)cc3)C2=O)CC2C(=O)N(c3ccc(C)cc3)C(=O)C12 (stereo not drawn)
 : -1.2% | -12% | -14 | -2%
CC(=O)NC(NC(C)=O)c1ccc(Br)cc1
 : -2.3% | -2% | 4 | 0%
Cc1ccc(NC(=O)COc2cccc(-n3cnnn3)c2)cc1[N+](=O)[O-]
 : -3.1% | -4% | . | 11%
CC(C)Cc1ccc(C(C)NC(=O)Cc2ccc(S(=O)(=O)N3CCOCC3)s2)cc1 (stereo not drawn)
 : -3.3% | 5% | . | .
CNC(=O)COC(=O)c1ccc(NS(=O)(=O)c2ccc3c(c2)OCCO3)cc1
 : -0.2% | -13% | -23 | -2%
Cc1ccccc1N1CC(C(=O)Nc2nnc(SCc3cccnc3)s2)CC1=O (stereo not drawn)
 : -2.8% | -1% | . | -1%
COc1ccc(C(=O)Nc2ccc(N3CCN(C(=O)c4cccs4)CC3)cc2)cc1Br
 : 2.7% | 11% | . | 22%
Cc1ccc(C)c(S(=O)(=O)N2CCCCC2CCNC(=O)C(=O)NCc2ccccn2)c1 (stereo not drawn)
 : -4.7% | 18% | . | .
COc1ccc(CN2C(=O)Cc3c2nc(N)c2c(N)nc(N4CCOCC4)c(C#N)c32)cc1
 : ? | ? | 9 | 2%
CSc1ccccc1-n1nnnc1SCC(=O)Nc1cc(C)ccc1C
 : 2.0% | -11% | -2 | 3%
N#Cc1ccc(N2C(=O)[C@@H]3C(C(=O)C(c4ccccc4)c4ccccc4)=NN[C@@H]3C2=O)cc1
 : -1.1% | -9% | -20 | -7%
COC(=O)c1ccc(OC)c(CSc2nnc(-c3ccc(C)cc3)o2)c1
 : -2.5% | 0% | . | .
COc1ccccc1OC(=O)C1CC(=O)N(c2ccc(Cl)cc2)C1 (stereo not drawn)
 : 7.9% | -3% | -7 | 0%
O=C(CCC(=O)N1CCN(S(=O)(=O)c2ccc([N+](=O)[O-])cc2)CC1)N1CCOCC1
 : -1.0% | -14% | . | .
Cc1cc(C(=O)NCc2cccnc2)n(-c2ccccc2)n1
 : -4.8% | 45% | 5 | -6%
Cc1nn(Cc2ccc(Cl)cc2)c(C)c1NC(=O)c1noc2c1CCCCC2
 : 1.8% | -3% | -17 | ?
CC(=O)Nc1ccc(NC(=O)COC(=O)c2ccc(C)s2)cc1
 : 0.8% | -1% | 7 | 11%

# Screens deposited in PubChem by National Center for Advancing Translational Sciences (NCATS).
